Vaccinia mCherry: inhibitors of vaccinia virus infection (mCherry reporter signal). Vaccinia virus mCherry reporter infection, fluorescence; about a quarter of the inactives have no number. Potency, µM (highest dose often 36.5 µM), inactives show top-dose activity change, negative = inhibition, usual class: inhibitors. hit rate 0.63% among 310,000; active = well fitted inhibition curve with a large enough effect; inconclusive = small, poorly fitted or top-dose-only effect; inactive = no such curve, though single readings can be large or run the other way; tested in A549 cells; also: nearly all actives have a fitted effect of over 35% in size; inactives centre near -10
Vaccinia Venus: inhibitors of vaccinia virus (Venus reporter); Potency, µM (highest dose often 36.5 µM), without a hit: top-dose activity change, negative = inhibition, most hits filed as inhibitors; hit rate 0.46% among 330,000; Vaccinia virus Venus reporter expression, fluorescence; active means well fitted inhibition curve with a large enough effect; inconclusive means small, poorly fitted or top-dose-only effect; inactive means no such curve, though single readings can be large or run the other way; tested in A549 cells; also: nearly all actives have a fitted effect of over 30% in size; inactives centre near -10
* = called active by the depositor; & = joins results of further samples; [ ] = dose if it differs, or a comment. % is scaled to controls: 0 for no effect and ±100 for the full control effect; potency is read from the fitted curve at half-maximal effect.

How did Cc1c(N2C(=O)C(=O)/C(=C(/O)c3ccc(Br)cc3)C2c2cccnc2)c(=O)n(-c2ccccc2)n1C (stereo not given) do in these assays?
Vaccinia mCherry: -22%; Vaccinia Venus: 15%

What do the screens show for `COc1ccc(N2CC(C(=O)NCCc3ccc(Cl)cc3)CC2=O)c(OC)c1` (stereo not given)?
Vaccinia mCherry: -6%; Vaccinia Venus: -20%

Results for N/C(=N\OC(=O)Cc1ccc(-c2ccccc2)cc1)c1cccc([N+](=O)[O-])c1 ?
Vaccinia mCherry: -14%; Vaccinia Venus: -15%

Results for CN(Cc1ccccc1F)C(=O)COc1ccc(C(=O)c2ccccc2)cc1 ?
Vaccinia mCherry: -22%; Vaccinia Venus: -4%

How did O=C(Nc1cccc(Cl)c1)OCc1cn(-c2ccccc2)nn1 do in these assays?
Vaccinia mCherry: -2%; Vaccinia Venus: 2%

Results for O=C(Nc1ccc2c(c1)OCCO2)c1cccnc1Oc1ccc(Cl)cc1 ?
Vaccinia mCherry: inactive; Vaccinia Venus: -20%

What do the screens show for `O=C(CSc1nc(-c2ccccc2)cs1)NCCN1C(=O)CSC1=O`?
Vaccinia mCherry: -1%; Vaccinia Venus: -1%

Results for COC(=O)C(C)Sc1nnc(Cc2cc(=O)[nH]c(=O)[nH]2)n1-c1cc(C)ccc1C (stereo not given) ?
Vaccinia mCherry: 5%; Vaccinia Venus: -2%

Results for COc1cccc(CNC(=O)[C@H](C)NC(=O)N2CC(=O)Nc3ccccc32)c1 ?
Vaccinia mCherry: inactive; Vaccinia Venus: -16%

Results for Cc1cc(C)c(C(N)=O)c(SCC(=O)c2cc(C)c(C)cc2C)n1 ?
Vaccinia mCherry: -22%; Vaccinia Venus: -18%

How did COc1ccc(CN2CCN(C(=O)c3cccs3)CC2)cc1 do in these assays?
Vaccinia mCherry: -5%; Vaccinia Venus: -16%

What do the screens show for `Cc1ccc2c(C(=O)CNC3=NCCS3)c(C)[nH]c2c1`?
Vaccinia mCherry: -12%; Vaccinia Venus: inconclusive

Results for COc1cccc(-c2ccc(O)c(CNC3CN4CCC3CC4)c2)n1 (stereo not given) ?
Vaccinia mCherry: -9%; Vaccinia Venus: -7%

How did CCOc1ccc(C(C)=O)cc1CN1C(=O)C(=O)N(CC)C1=O do in these assays?
Vaccinia mCherry: inactive; Vaccinia Venus: -2%

Results for O=C1OCCN1CC(=O)N1CCc2c([nH]c3ccccc23)C1c1ccccn1 (stereo not given) ?
Vaccinia mCherry: inactive; Vaccinia Venus: -8%

Results for CCCCCCCCN=Cc1c(O)[nH]c(=O)[nH]c1=O ?
Vaccinia mCherry: inactive[7.34 µM]; Vaccinia Venus: 3%[7.34 µM]

Results for CN1C(=O)[C@@](O)(c2cn(C)c3ccccc23)c2ccccc21 ?
Vaccinia mCherry: -27%; Vaccinia Venus: -5%

What do the screens show for `Cc1ccc2nc(NC(=O)CSc3ncnc4c3oc3ccccc34)sc2c1`?
Vaccinia mCherry: -21%; Vaccinia Venus: inconclusive

What do the screens show for `COc1c(OC(C)=O)ccc(/C=C/c2ccc3cccc(OC)c3n2)c1[N+](=O)[O-]`?
Vaccinia mCherry: inconclusive; Vaccinia Venus: inconclusive

Results for COc1cc(C2C(C(=O)N3CCOCC3)=C(C)NC3=C2C(=O)CCC3)ccc1OC(C)=O (stereo not given) ?
Vaccinia mCherry: -14%; Vaccinia Venus: -9%

The closing 2 entries of the section above open the next one.
What do the screens show for `COc1c(OC(C)=O)ccc(/C=C/c2ccc3cccc(OC)c3n2)c1[N+](=O)[O-]`?
Vaccinia mCherry: inconclusive; Vaccinia Venus: inconclusive

Results for COc1cc(C2C(C(=O)N3CCOCC3)=C(C)NC3=C2C(=O)CCC3)ccc1OC(C)=O (stereo not given) ?
Vaccinia mCherry: -14%; Vaccinia Venus: -9%

Results for Cn1c(=NC(=O)CN2C(=O)C3CC=CCC3C2=O)sc2ccccc21 (stereo not given) ?
Vaccinia mCherry: -8%&-24%; Vaccinia Venus: -19%&-15%

How did CCc1cccc2sc(N3CCN(C(=O)c4ccc([N+](=O)[O-])o4)CC3)nc12 do in these assays?
Vaccinia mCherry: inconclusive; Vaccinia Venus: inconclusive

How did Cc1ccc(Cl)cc1N1CCN(C(=O)c2ccc3c(Cl)c4c(nc3c2)CCCC4)CC1 do in these assays?
Vaccinia mCherry: inconclusive; Vaccinia Venus: -29%

How did CCc1nc2c(OCc3ccc(Cl)cc3)cccn2c1N(C)C(=O)c1ccccc1F do in these assays?
Vaccinia mCherry: -21%; Vaccinia Venus: -12%

How did Cc1noc(C)c1COC(=O)c1ccc2ccccc2n1 do in these assays?
Vaccinia mCherry: 1%; Vaccinia Venus: 7%

How did Cc1cccc(CC(=O)Nc2c3c(nn2-c2cccc(Cl)c2)CS(=O)C3)c1 (stereo not given) do in these assays?
Vaccinia mCherry: -2%; Vaccinia Venus: -2%

How did Cc1cccc(NC(=O)c2csnn2)n1 do in these assays?
Vaccinia mCherry: inactive; Vaccinia Venus: -8%

What do the screens show for `Cc1cc(CN2CCCCC2)oc1C(=O)O`?
Vaccinia mCherry: inactive; Vaccinia Venus: -22%

What do the screens show for `COCCn1c(-c2ccccc2)cnc1SCC(=O)Nc1cccc2ccccc12`?
Vaccinia mCherry: -27%; Vaccinia Venus: -25%

How did COc1cccc(NC(=O)C2(C)CCCN(C(C)C)C2)c1 (stereo not given) do in these assays?
Vaccinia mCherry: -4%; Vaccinia Venus: 2%

Results for CCSc1ccc(-c2cc(NC=O)c3ncc(-c4cccc(C(=O)NCCN(C)C)c4)n3c2)cc1 ?
Vaccinia mCherry: 12%; Vaccinia Venus: -5%

What do the screens show for `OC(c1ccc(F)cc1)c1nc(-c2cncnc2)cs1` (stereo not given)?
Vaccinia mCherry: -13%; Vaccinia Venus: 10%

Results for CN=C(N)NCCC[C@H](N)C(=O)O ?
Vaccinia mCherry: inactive; Vaccinia Venus: -10%

Results for COc1ccc(NC(=O)c2cc(=O)c3ccc(C)c(C)c3o2)cc1Cl ?
Vaccinia mCherry: -3%; Vaccinia Venus: -2%

How did COc1ccc2c(c1)cc(CNc1ccc(OC)c(OC)c1)c(=O)n2CC(=O)Nc1ccc(F)cc1 do in these assays?
Vaccinia mCherry: -5%; Vaccinia Venus: 10%

What do the screens show for `Cc1cc(C)cc(NC(=O)CN2CCC(NC(=O)c3cccc(F)c3)CC2)c1`?
Vaccinia mCherry: -8%; Vaccinia Venus: inconclusive

Results for COc1ccc([C@H]2CC(=O)C=C(c3cc(Cl)ccc3OC)C2)cc1 ?
Vaccinia mCherry: -20%; Vaccinia Venus: inconclusive

Results for COc1cccc(NC(=O)C2C3C=CC(O3)C2C(=O)O)c1 (stereo not given) ?
Vaccinia mCherry: -26%; Vaccinia Venus: 1%

Results for Cc1ccc([N+](=O)[O-])cc1S(=O)(=O)Nc1ccc(C(=O)N(C)C)cc1 ?
Vaccinia mCherry: inactive; Vaccinia Venus: -8%

Results for CCC(C(=O)Nc1ccccc1-c1ccccc1)c1ccccc1 (stereo not given) ?
Vaccinia mCherry: -1%; Vaccinia Venus: -11%

What do the screens show for `Cc1ccc(NC(=O)CNC(=O)CN2C(=O)c3ccccc3C2=O)cc1`?
Vaccinia mCherry: inactive; Vaccinia Venus: 11%

How did Cc1nc(C(=O)NNC(=O)c2ccc(C(F)(F)F)cc2)cs1 do in these assays?
Vaccinia mCherry: inconclusive; Vaccinia Venus: -25%

What do the screens show for `COC(=O)c1cccc(NC(=O)c2ccc3c(c2)C(=O)N(CC2CCCO2)C3=O)c1` (stereo not given)?
Vaccinia mCherry: inactive; Vaccinia Venus: -5%

What do the screens show for `CCOc1cccc(C(=O)N(Cc2ccc(C(C)C)cc2)C2CCS(=O)(=O)C2)c1` (stereo not given)?
Vaccinia mCherry: -15%; Vaccinia Venus: -15%

How did COc1ccccc1CNc1nc(NCc2ccccc2)nc2ccsc12 do in these assays?
Vaccinia mCherry: -18%; Vaccinia Venus: inconclusive

How did Cc1ccc(C)c(Cn2nnc3c(=O)[nH]c(C4CCCN(C(=O)c5cccs5)C4)nc32)c1 (stereo not given) do in these assays?
Vaccinia mCherry: inactive; Vaccinia Venus: -16%

What do the screens show for `O=C(Nc1ccc2[nH]ccc2c1)c1cccs1`?
Vaccinia mCherry: -3%; Vaccinia Venus: -8%

Results for Cc1cc(NC2CCCCC2)nc(N2CCOCC2)n1 ?
Vaccinia mCherry: 0%; Vaccinia Venus: -5%

How did O=c1cc(-c2ccc(F)cc2)nc(SCc2nc(-c3ccc(Cl)cc3)no2)[nH]1 do in these assays?
Vaccinia mCherry: inactive; Vaccinia Venus: -5%

Results for COc1cc(OC)c(NS(=O)(=O)c2cc(C(=O)OC(C)C(=O)NC3CC3)c(Cl)cc2Cl)cc1Cl (stereo not given) ?
Vaccinia mCherry: -2%; Vaccinia Venus: -13%

What do the screens show for `O=C(Cn1c(=O)n(Cc2nc(-c3ccccc3)no2)c(=O)c2ccccc21)Nc1cccc(C(F)(F)F)c1`?
Vaccinia mCherry: -11%; Vaccinia Venus: -17%

What do the screens show for `Cn1c(SCC(=O)Nc2cccc(S(=O)(=O)N3CCOCC3)c2)nnc1-c1ccncc1`?
Vaccinia mCherry: 3%; Vaccinia Venus: 0%

Results for COc1ccc(-n2cnc3sccc3c2=O)cc1 ?
Vaccinia mCherry: inactive; Vaccinia Venus: 0%

Results for COc1cccc(C)c1NC1=NCCO1 ?
Vaccinia mCherry: inconclusive; Vaccinia Venus: inconclusive

How did O=C(CSc1ncc(-c2ccccc2)[nH]1)Nc1ccc(Cl)cc1 do in these assays?
Vaccinia mCherry: -9%; Vaccinia Venus: -2%

Results for COc1ccc(-n2ncc(C(C)NS(=O)(=O)c3cc(F)ccc3C)c2C)cc1 (stereo not given) ?
Vaccinia mCherry: -2%; Vaccinia Venus: -17%

What do the screens show for `O=C(O)COc1ccc(NC(=O)c2ccc3c(c2)C(=O)N(Cc2ccccc2)C3=O)cc1`?
Vaccinia mCherry: -7%; Vaccinia Venus: 6%

Results for CCC1=NN2C(=N)/C(=C/c3cc(C)n(Cc4ccccc4)c3C)C(=O)N=C2S1 ?
Vaccinia mCherry: -9%; Vaccinia Venus: -2%

How did CCOC(=O)N1CCN(C(=O)c2ccccc2NC(=O)COc2ccccc2)CC1 do in these assays?
Vaccinia mCherry: inactive; Vaccinia Venus: -2%

Results for S=c1nc[nH]c2c1ncn2C1CCCO1 (stereo not given) ?
Vaccinia mCherry: 11µM*; Vaccinia Venus: inconclusive

How did CCC(C)NC(=O)Cn1c(COc2ccc(Cl)cc2Cl)nc2ccccc21 (stereo not given) do in these assays?
Vaccinia mCherry: -6%; Vaccinia Venus: -7%

What do the screens show for `Cc1cc(C)c2cc(CN(Cc3ccco3)C(=O)NCc3ccccc3)c(=O)[nH]c2c1`?
Vaccinia mCherry: -17%; Vaccinia Venus: inconclusive

How did CSc1nsc2nc(=O)c(/C=C3\C(C)=Nc4ccccc43)c(N)n12 do in these assays?
Vaccinia mCherry: -22%; Vaccinia Venus: -2%

How did COC(=O)CSc1cc(C)nc2ccc(OC)cc12 do in these assays?
Vaccinia mCherry: -7%; Vaccinia Venus: -1%

What do the screens show for `COc1ccc(CN2CCN(Cc3ccc(CO)o3)CC2CCO)cc1C` (stereo not given)?
Vaccinia mCherry: -23%; Vaccinia Venus: -10%

What do the screens show for `CCOc1ccc(-n2c(-c3ccc(Br)cc3)c[n+]3c2CCCCC3)cc1`?
Vaccinia mCherry: -18%; Vaccinia Venus: -5%

Results for COc1cc(OC)cc(C(=O)Nc2ccc3nc(N4CCC(C)CC4)cc(C)c3c2)c1 ?
Vaccinia mCherry: -27%; Vaccinia Venus: -16%

What do the screens show for `CSc1ccc(CN2CCC(C)(Oc3ccc4ccccc4c3)C2)cc1` (stereo not given)?
Vaccinia mCherry: 0%; Vaccinia Venus: 8%

Results for C=CCN1C(=O)CS/C1=N/c1nccs1 ?
Vaccinia mCherry: -18%; Vaccinia Venus: -5%

How did COCCCNC(=O)c1c(NC(=O)Cc2coc3cc(C)cc(C)c23)sc2c1CCCC2 do in these assays?
Vaccinia mCherry: -5%; Vaccinia Venus: 4%

What do the screens show for `CCOc1ccc(Oc2c(C)oc3cc(O)ccc3c2=O)cc1`?
Vaccinia mCherry: -5%; Vaccinia Venus: -1%

Results for C[C@H](NC(=O)c1nc[nH]c1C(=O)NCC(=O)OC(C)(C)C)C(=O)OCc1ccccc1 ?
Vaccinia mCherry: inactive; Vaccinia Venus: -5%

What do the screens show for `COC(=O)C1=C(C)N(C)C(=O)/C1=C\c1cccs1`?
Vaccinia mCherry: -7%; Vaccinia Venus: -13%

How did CC(C)(SC(=S)N1CCOCC1)C(=O)O do in these assays?
Vaccinia mCherry: -13%[1.46 µM]; Vaccinia Venus: -1%

What do the screens show for `CC(=C/c1ccccc1)/C=N/N1CCN(Cc2ccc(C)cc2)CC1`?
Vaccinia mCherry: inactive; Vaccinia Venus: -9%

Two records drawn at random from those above:
What do the screens show for `COc1ccc(CN2CCN(Cc3ccc(CO)o3)CC2CCO)cc1C` (stereo not given)?
Vaccinia mCherry: -23%; Vaccinia Venus: -10%

What do the screens show for `CSc1ccc(CN2CCC(C)(Oc3ccc4ccccc4c3)C2)cc1` (stereo not given)?
Vaccinia mCherry: 0%; Vaccinia Venus: 8%

3 entries already listed, arranged by length of the SMILES, largest number first.
How did COCCCNC(=O)c1c(NC(=O)Cc2coc3cc(C)cc(C)c23)sc2c1CCCC2 do in these assays?
Vaccinia mCherry: -5%; Vaccinia Venus: 4%

What do the screens show for `CCOc1ccc(-n2c(-c3ccc(Br)cc3)c[n+]3c2CCCCC3)cc1`?
Vaccinia mCherry: -18%; Vaccinia Venus: -5%

How did CSc1nsc2nc(=O)c(/C=C3\C(C)=Nc4ccccc43)c(N)n12 do in these assays?
Vaccinia mCherry: -22%; Vaccinia Venus: -2%
